Bioassay records: PubChem BioAssay, ICCB-Longwood Screening Facility, Harvard Medical School
HCMV UL50-53 inh = inhibitors of HCMV UL50-UL53 interaction, biochemical, HTRF; HCMV UL50-UL53 nuclear egress complex (human cytomegalovirus); normalized percent inhibition; inhibition, % (concentration not given with the values); 0.15% of 190,000 active; AID 1918969, 2023;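 active means both replicates at 50% or more, plus weaker picks with an unusually low signal ratio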;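 further: stock transfer was 100 nL into about 20 µL; 0% = negative control wells and 100% = wells with untagged competitor protein; inactives centre near -12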
GIV Gai3 FP = inhibitors of GIV peptide binding to Galpha-i3, primary screen, biochemical, fluorescence polarization, FITC-GIV GBA peptide, rat Galphai3; 90 min; active compounds read low; scaled: aluminum fluoride 0%, vehicle 100%; percent of control (FP), % (no concentration beside the values); 0.42% of 210,000 active;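 active means replicate mean at 85% of control or lower, very high polarization wells dropped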;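 further: wells of about 15 µL received 100 nL stock; the first replicate is given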
Target sequence (P08753 whole entry, looked up): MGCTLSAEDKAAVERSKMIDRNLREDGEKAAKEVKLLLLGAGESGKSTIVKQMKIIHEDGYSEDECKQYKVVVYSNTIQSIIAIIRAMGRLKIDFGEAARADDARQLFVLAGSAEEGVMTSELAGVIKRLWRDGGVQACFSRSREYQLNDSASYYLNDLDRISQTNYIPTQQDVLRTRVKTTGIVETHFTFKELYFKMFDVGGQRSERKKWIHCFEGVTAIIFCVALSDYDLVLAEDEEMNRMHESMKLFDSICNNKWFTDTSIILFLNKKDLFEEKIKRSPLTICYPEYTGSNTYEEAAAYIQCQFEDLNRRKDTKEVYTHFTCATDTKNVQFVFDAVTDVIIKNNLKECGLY
Sa growth 42C = S. aureus growth inhibition at 42 and 30 °C, primary screen, LtaS inhibitor project, RN4220, two temperatures. OD600, 20 h, 42 °C; active compounds read low. AID 720641, 2013. relative growth, % (concentration not given with the values). 0.53% of 170,000 active;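 active means growth at 42 °C up to 50% and 20 or more points under that at 30 °C, or under 10% at both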;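 further: 300 nL library stock went into each well; scaled to the means of positive and negative controls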
Sa growth 42C second temp = further read-out of Sa growth 42C, marked with its call; relative growth, %; measured here: growth at 30 °C;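 optical density after 20 h as mean of two plates; 100% = untreated growth and lower means inhibition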
Active calls of the source: *; / = no result given; & = joins results of further samples.

SMILES	HCMV UL50-53 inh	GIV Gai3 FP	Sa growth 42C	Sa growth 42C second temp
CN[C@@H]1[C@H](O[C@H]2[C@H](O[C@@H]3[C@@H](O)[C@H](O)[C@@H](N=C(N)N)[C@H](O)[C@H]3N=C(N)N)O[C@@H](C)[C@]2(O)C=O)O[C@@H](CO)[C@H](O)[C@H]1O	-31&-5	108	98	96
NC(=O)N1c2ccccc2C=Cc2ccccc21	-16&-12&-19&-31&-46	105&119&95	98&99	90&100
CC(Sc1nnc(N)s1)C(=O)Nc1ccc(F)c(F)c1F (configuration not stated)	-4	/	85	93
O=C(c1ccc(N2C(=O)CCS2(=O)=O)cc1)N1CCOCC1	-7	100	/	/
CN(C(=O)c1ccccc1)c1nc2ccccc2s1	4	/	139	89
O=C1c2ccccc2C(=O)N1CCCCN(C(=O)c1sc2ccccc2c1Cl)c1ccc(F)cc1F	-10	100	/	/
CC(=O)c1ccc(NC(=O)C2CCC(CNS(=O)(=O)c3ccc4c(c3)CCCC(=O)N4)CC2)cc1 (configuration not stated)	/	98	98	90
O=C1CN(C(=O)C2CCC2)CCN1	-20	100	88	84
Cc1ccc2nc(C)cc(Nc3ccccc3)c2c1	-30	109	86	62
CCc1ccc(C2C(C(=O)Nc3ccccc3OC)=C(C)Nc3nc(SCc4ccccc4)nn32)cc1 (configuration not stated)	0	104	87	89
O=C(c1sc2ccccc2c1Cl)n1ccc(-c2cccs2)n1	-25	105	97	86
CC1=Nc2ccccc2/C1=C/c1sc(=O)n(-c2ccccc2)c1O	/	97	102	81
O=C(Nc1ccc2c(c1)OCCO2)c1ccno1	2	106	91	93
CC(Oc1ccc(F)cc1)C(=O)Oc1cccc(-n2cnnn2)c1 (configuration not stated)	-23	101	/	/
C=CCn1c(SCC(=O)c2[nH]c(C)c(C(=O)OC)c2C)nc2sc3c(c2c1=O)CCC3	3	104	/	/
Cc1nc2ccccc2c(C)c1CC(=O)O	7	/	115	98
CC(=O)c1cc(-c2ccc(F)cc2)n(CC(=O)Nc2cc(C)cc(C)c2)c1C	/	97	110	88
CC1=C(c2ccc(Cl)cc2)S(=O)(=O)NC1=NC1CCN(Cc2ccccc2)CC1	-5	97	/	/
Cc1ccc(NC(=O)C2CCN(c3nnc(-n4cccc4)s3)CC2)cc1Cl	/	104	88	94
CCC(=O)N(c1nnc(SC(C)c2nc3ccccc3c(=O)[nH]2)s1)C1CC1 (configuration not stated)	9	/	106	99
CCc1nnc(NC(=O)CSc2ccc3nnc(-c4ccncc4)n3n2)s1	-20	104	/	/
CCCCN(CCCC)CCn1cnc2c([nH]c3ccc(OC)cc32)c1=O	-4	108	89	89
NC(=O)Cn1c(=O)n(CCCCCC(=O)NCc2ccccc2Cl)c(=O)c2sccc21	2	106	110	82
O=C(COc1ccccc1Cl)N1CCOCC1	-5	/	96	84

One compound at a time, as listed above. Order of screens: HCMV UL50-53 inh	GIV Gai3 FP	Sa growth 42C	Sa growth 42C second temp
Listed for CN[C@@H]1[C@H](O[C@H]2[C@H](O[C@@H]3[C@@H](O)[C@H](O)[C@@H](N=C(N)N)[C@H](O)[C@H]3N=C(N)N)O[C@@H](C)[C@]2(O)C=O)O[C@@H](CO)[C@H](O)[C@H]1O → -31&-5	108	98	96
Listed for C=CCn1c(SCC(=O)c2[nH]c(C)c(C(=O)OC)c2C)nc2sc3c(c2c1=O)CCC3 → 3	104	/	/
Listed for CN(C(=O)c1ccccc1)c1nc2ccccc2s1 → 4	/	139	89

(cont.)
SMILES	HCMV UL50-53 inh	GIV Gai3 FP	Sa growth 42C	Sa growth 42C second temp
CCCCCCOc1ccc(C2C(C#N)=C(C)NC(C)=C2C#N)cc1	-15	/	81	97
COc1ccc(CNC(=O)c2ccc(CS(=O)c3ccc(OC)cc3)o2)cc1 (configuration not stated)	-27	108	87	88
COc1ccccc1NC(=O)CN(Cc1ccco1)C(=O)Cc1ccc(Cl)cc1	-2	/	111	96
CCOc1ccccc1NC(=O)CN(c1cc(C)cc(C)c1)S(=O)(=O)c1c(C)nn(C)c1C	/	104	91	87
CCCCOc1ccc(CNC(=O)Cc2ccc(NC(=O)N3CCCCc4ccccc43)cc2)cc1	/	99	89	91
Cc1cc(C)c(-c2n[nH]c3c2C(c2ccccc2F)N(CCO)C3=O)c(O)c1 (configuration not stated)	2	102	118	81
CCOc1ccccc1CN1CCc2nc(Nc3cccc(OC)c3)ncc2C1	-7	103	/	/
CCN(CC)S(=O)(=O)c1ccc2c(c1)nc(CN(C)C(=O)Nc1ccc(C)c(Cl)c1)n2C	-3	106&106	97	97
COc1ccccc1-c1coc2c(CN(C)C)c(O)ccc2c1=O	-29	97	88	108
COc1ccc(C2=NC(c3ccncc3)=Nc3ccc(C(C)C)cc3N2)cc1OC	/	102	93	81
COc1ccc(N2CC(NC(=O)c3ccc(S(=O)(=O)N4CCOCC4)cc3)CC2=O)cc1OC (configuration not stated)	/	98	120	91
N#Cc1cnn(C(N)=S)c1N	-3	/	86	88
NC(=O)C1CCN(C(=O)C2C3CCC(C3)C2C(=O)O)CC1 (configuration not stated)	/	106	100	91
CSc1ccc(/C=N/N(C)S(=O)(=O)c2ccc(C)cc2)cc1	/	102	115	96
C/C(=C\c1ccccc1)c1ccc2c(c1)CCN2C	/	99	96	85
CC(C)C(=O)Nc1c2c(nn1-c1ccc(Oc3ccccc3)cc1)CSC2	/	102	92	79
CC1=C(C(=O)OC2CCCCCC2)C(c2ccc(Cl)cc2)CC(=O)N1 (configuration not stated)	-6	105	93	92
CC1CCCCN1S(=O)(=O)c1ccc(C(=O)Nc2sc3c(c2C(N)=O)CC(C)(C)NC3(C)C)cc1 (configuration not stated)	/	100	106	92
COc1ccc(C2=NN3COc4ccccc4C3C2)cc1 (configuration not stated)	/	101	105	87
Cc1ccc2nc(SCCC3OCCO3)nc(=O)n2c1	-46	102	84	79
O=C(NCCN1CCCCCC1)c1ccc(N2CCCC2=O)cc1	5	107	103	108
C/C(CCc1ccc2c(c1)OCO2)=N\N=C(/N)SC1CC(=O)N(c2ccccc2)C1=O (configuration not stated)	-10	102	113	107
Cc1cccc(N2CCN(C(=O)c3ccc(Nc4nc5ccccc5n5nnnc45)cc3)CC2)c1C	-13	110	110	86
O=C(c1ccccc1Cl)N(Cc1ccco1)Cc1ccco1	-8	107	110	83
Cc1[nH]c2ccc(F)cc2c1CC(=O)O	-8	103	98	84
CNC(=O)c1c(O)c2ccccc2n(C)c1=O	-12	/	87	86
O=C(Cc1ccc(F)cc1)NC1CC(=O)N(c2ccc3c(c2)OCCO3)C1 (configuration not stated)	/	99	97	86
COC(=O)CC1CC(C)(C)NC(C)(C)C1	-9	/	101	92
CC(C)C(=O)Nc1nnc(-c2ccccc2)o1	-5	104	84	82
Cc1ccc(S(=O)(=O)N=S(C)(=O)c2ccc(C(F)(F)F)cn2)cc1 (configuration not stated)	-15	96	95	82
COC(=O)C1=C(C(=O)OC)SC(=C2C(=S)C(C)(C)N(C(=O)CN3C(=O)C4CCCCC4C3=O)c3cc(C)ccc32)S1 (configuration not stated)	-13	99	/	/
Cc1noc(C)c1C(=O)Nc1ccc(S(=O)(=O)N2CCCCC2)cc1	-22	/	85	88
CCCC1=NN(c2ccccc2)C(=O)/C1=C/c1ccc2c(c1)OCO2	/	101	114	90
COc1ccc(CC(=O)N2CCN(S(=O)(=O)c3ccc4c(c3)NC(=O)CO4)CC2)cc1	-22	102	/	/
COCCN1C(=O)N(c2cccc(OC)c2)C(=O)C1CC(=O)Nc1ccccc1 (configuration not stated)	19	107	97	96
CC1(C)CC(=O)C=C(Nc2sc3c(c2C(N)=O)CCCC3)C1	-10	/	101	90

Some of the entries so far, in CSV form.
SMILES,HCMV UL50-53 inh,GIV Gai3 FP,Sa growth 42C,Sa growth 42C second temp
CNC(=O)c1c(O)c2ccccc2n(C)c1=O,-12,/,87,86
O=C(Cc1ccc(F)cc1)NC1CC(=O)N(c2ccc3c(c2)OCCO3)C1 (configuration not stated),/,99,97,86

Additional entries follow:
SMILES	HCMV UL50-53 inh	GIV Gai3 FP	Sa growth 42C	Sa growth 42C second temp
Cc1nnc(C(=O)c2ccccc2)o1	-92	/	93	84
NN1C(=O)/C(=C\c2ccccc2)SC1=S	/	114	109	81
CCOc1ccc2sc(NC(=O)NC(C)N3C(=O)C4C5C=CC(C5)C4C3=O)nc2c1 (configuration not stated)	-27	102	100	57
CC[n+]1oc(C)c2ccccc21	/	99	91	89
COC(=O)C1=C(C)N=c2s/c(=C\c3ccc(OC(C)=O)cc3OC(C)=O)c(=O)n2C1c1ccccc1 (configuration not stated)	-6	140	/	/
Cc1ccc(CN2CCc3nc(SCC(=O)NCCc4ccccc4)[nH]c(=O)c3C2)cc1	-32	102	93	75
CC(=O)N(C)c1ccc(C(O)(C(F)(F)F)C(F)(F)F)cc1	/	104	95	92
COc1cccc(NC(=O)C(C#N)Cc2cccs2)c1 (configuration not stated)	21	104	99	112
Cc1ccc(NS(=O)(=O)c2ccc3[nH]c(=O)ccc3c2)cc1N(C)C	/	104	91	87
Oc1ccccc1OCc1ccc2ccccc2n1	-21	/	91	85
COC(=O)C1=CN(Cc2ccc(OC)cc2)C=C(C(=O)OC)C1c1ccc(OC)cc1	/	96	127	92
O=C(O)/C=C/C(=O)N1CCCCC1	-7	/	89	86

2 compounds drawn at random from the list so far, as already listed:
SMILES	HCMV UL50-53 inh	GIV Gai3 FP	Sa growth 42C	Sa growth 42C second temp
Cc1ccc2nc(SCCC3OCCO3)nc(=O)n2c1	-46	102	84	79
Cc1ccc(NS(=O)(=O)c2ccc3[nH]c(=O)ccc3c2)cc1N(C)C	/	104	91	87

Other compounds follow:
SMILES	HCMV UL50-53 inh	GIV Gai3 FP	Sa growth 42C	Sa growth 42C second temp
Oc1ccc(Cl)cc1C=Nc1ccc2cn[nH]c2c1	5	106	93	90
COc1ccc(Cl)cc1NC(=S)N1CCCCC1CO (configuration not stated)	-7	104	97	91
N#C/C(=C\c1cn(CCOc2ccccc2F)c2ccccc12)C(=O)NC1CC1	-32	108	100	96
Cn1nc(C(=O)N2CCN(c3ccc(F)cc3)CC2)c2c1-c1ccccc1SC2	-12	104	81	84
COc1ccc(N(CC(=O)N2CCN(c3ccccc3F)CC2)S(=O)(=O)c2c(C)nn(C)c2C)cc1	-4	107	91	93
CN(CC(=O)Nc1ccc(Cl)cc1)C1CCCCC1	-1	110	61	78
O=C(C1CCCN1S(=O)(=O)c1ccc2nc(-c3ccccc3)[nH]c2c1)N1CCOCC1 (configuration not stated)	/	106	104	84
CCOC(=O)CCN1C(=O)c2ccccc2Sc2ncccc21	-31	103	104	92
CCCS(=O)(=O)N1CC(=O)N(c2ccccc2F)C(C)(C(=O)NC2CCCCCC2)C1 (configuration not stated)	/	104	113	83
CN(C(=O)C(NS(=O)(=O)c1ccc2c(c1)CCC(=O)N2)c1ccccc1)C1CCCCC1 (configuration not stated)	4	101	98	96
O=c1[nH]ncc2c3ccccc3n(Cc3ccc(F)cc3)c12	/	101	123	85
O=C1Nc2ccc(Br)cc2C1Cc1ccccc1 (configuration not stated)	4	105	/	/
CCOC(=O)c1c(C)oc2nc(C)nc(NCC3CCN(Cc4ccc(C)cc4)CC3)c12	/	105	117	100
COC(=O)c1cc(OC)c(OC)cc1NC(=S)N1CCN(c2ccccn2)CC1	-3	103	95	90
CCC(=O)N1CCc2cc(S(=O)(=O)CCC(=O)N3CCN(c4ccccc4Cl)CC3)ccc21	-23	102	98	90
Cn1cc(CN(C(=O)Nc2ccccc2)C2CCCCC2)c2ccccc21	-23	105	103	94
COC(=O)c1sccc1-c1ccc(CN2CCCc3cc(OC)ccc32)o1	19	104	118	93
O=C(CSc1ncnc2sccc12)NC(=O)CN1CCCC1=O	-30	/	101	93
CC1(C)NC(=O)N(CC(O)Cn2c3ccccc3c3ccccc32)C1=O (configuration not stated)	/	100	90	72
Cc1ccccc1Cn1c(=O)n(CCC(C)C)c(=O)c2cccnc21	-16	99	90	84
CCSCC(=O)Nc1ccc(F)cc1	6	104	103	101
CCc1ccc(-n2nc(C)c3c(C(=O)Nc4cc(C)c(Cl)cc4OC)cc(C)nc32)cc1	/	99	94	82
O=C(Nc1ccc(N2CCOCC2)cc1)c1ncn[nH]1	-17	105	96	60
Cc1nn(-c2ccccc2)c(C)c1CCc1nnc2sc(-c3ccc(F)cc3)nn12	-22	104	/	/
CCCCCc1c(C)c(C#N)c2nc3ccccc3n2c1-n1ccnc1	-30	102	87	89
Cc1ccc2c(c1)C(c1ccc(F)cc1)N(C(=O)C(C)C)CC(=O)N2 (configuration not stated)	15	106	98	102
Cc1ccc(CNC(=O)C2CCN(c3nc4ccc(C)cc4[nH]3)CC2)cc1	/	110	98	94
CCOc1cc(C2NC(=O)c3c(sc4c3CCN(C)C4)N2)ccc1OC(=O)c1ccccc1Cl (configuration not stated)	1	120	99	86
COc1cccc(OCc2nc3ccccc3n2Cc2ccccc2C)c1	6	109	72	74
Cc1cccc(N2CCN(C(=O)c3ccc4c(c3)N(Cc3cccc(Cl)c3)C(=O)c3ccccc3S4(=O)=O)CC2)c1C	/	106	120	98
N#Cc1c(SCC(=O)N2CCCCC2)nsc1SCC(=O)N1CCCCC1	0	/	88	94
O=C1Nc2ccccc2S/C1=C\C(=O)N1CCN(c2ccccc2)CC1	/	102	103	81
CC(=O)N1c2ccc(S(=O)(=O)N3CCC(C(=O)N4CCN(C)CC4)CC3)cc2CC1C (configuration not stated)	0	107	/	/
CC1CCCC(C)N1C(=O)c1cc(-c2ccc(Cl)cc2)on1 (configuration not stated)	/	112	95	90
CC(C)=CC(=O)Oc1ccc(Br)cc1	3	104	96	89
